ClpP mod – qHTS Assay for Activators of ClpP; ATP-dependent Clp protease proteolytic subunit (Bacillus subtilis (strain 168)), P80244; purified B. subtilis ClpP, FRET peptide cleavage, 20 min; Potency, µM (titrated, usually from 57.5 µM), inactives show at the top dose activity change, negative = active; 340,000 compounds, 1.9% hits; AID 651965, 2013; active = well fitted falling curve with a large enough effect; inconclusive = small, poorly fitted or top-dose-only effect; inactive = no such curve, though single readings can be large or run the other way; note: potency is the fitted concentration of half-maximal effect; the source files actives as falling curves though it sought activators and does not explain the sign; nearly all actives have a fitted effect of over 65% in size; many hits overshoot -100%
Target sequence (P80244 whole entry, looked up): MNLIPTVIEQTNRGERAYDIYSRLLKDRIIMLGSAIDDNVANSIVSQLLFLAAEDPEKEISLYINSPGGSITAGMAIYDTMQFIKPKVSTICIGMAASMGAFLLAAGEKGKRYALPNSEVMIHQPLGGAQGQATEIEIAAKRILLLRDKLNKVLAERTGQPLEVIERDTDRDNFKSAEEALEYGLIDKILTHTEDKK
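FRET quenching reversal measured ClpP activation: 10 microg/mL B. subtilis ClpP at pH 8 with the FRET-FV decapeptide, read at 430 nm after 320 nm excitation. The 20-min minus 0-min signal was scaled between DMSO/no-enzyme wells and ADEP (5.8 microM final).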
gsp antag – antagonizes gsp, the McCune-Albright syndrome mutation; Potency, µM (series often up to 76.9 µM), for the others: at the top dose activity change, negative = inhibition, hits mostly inhibitors; 340,000 compounds, 0.4% hits; AID 624288; gsp-mutant cells, cAMP HTRF, 30 min; control for the full effect not named in the record; active = falling curve of any shape with a large fitted effect; inconclusive = falling curve, mostly with a smaller effect; inactive = flat or rising curve; cell line not stated here;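 note: intracellular cAMP measured with PDE inhibitor Ro 20-1724 present during compound exposure; potency is the fitted concentration of half-maximal effect; % is set by controls: 0 for no effect and ±100 for the full control effect; nearly all actives have a fitted effect of over 65% in size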
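HTRF cAMP measurement after 30 min RT detection following 30 min, 37C compound treatment alongside […] (added as 300 uM solution) in G418-selected cells seeded at 2000/well and grown 16–24 h.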
Menin-MLL FL inh – inhibitors of human menin-MLL interaction, wild-type MLL peptide. FP activity change, % at 61.4 µM. 290,000 tested, under 10 active. Fluorescence polarization, fluorescein-MLL peptide displacement from menin. AID 1766; inconclusive = falling polarisation curve, or a change in total fluorescence; inactive = total fluorescence flat and polarisation flat or rising; no compound was filed as active; the % refers to the polarisation; negative = inhibition;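 note: % of control where 0% means no effect; inhibitors lower the polarisation; unlabelled MLL peptide was the positive control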
gsp agonist – agonists of gsp mutant (McCune-Albright syndrome); 340,000 compounds, 0.13% hits; Potency, µM (doses to about 76.9 µM), for inactives: at the highest dose activation (cAMP increase), most hits filed as activators; gsp mutant cells, cAMP HTRF, 30 min; control for the full effect not named in the record; active = well fitted activation curve with a large enough effect; inconclusive = small, poorly fitted or top-dose-only effect, or another doubt; inactive = no such curve, though single readings can be large or run the other way; cell line not stated here;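 note: phosphodiesterase inhibitor Ro 20-1724 added with compounds to block cAMP breakdown; potency is the fitted concentration of half-maximal effect; nearly all actives have a fitted effect of over 60% in size; about a fifth of the inactives were tested at one dose only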
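Cells stably selected in G418 were plated at 2000/well, grown 16-24 hr, then given compounds in DMSO with the PDE inhibitor […] (300 uM solution added) for 30 min at 37C; cAMP was read by HTRF.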
TRPV1 potentiator – human TRPV1 potentiation; Q8NER1; TRPV1-expressing cells, Fluo-8 calcium influx, capsaicin EC20 potentiation; host cell line not named in the record; control for the full effect not named in the record; potentiation, % at 8.33 µM; 320,000 compounds, 0.02% hits; AID 540277; active means potentiation above 80%; inconclusive means 30% to 80%; inactive means below 30%; note: 0% is about no effect
Target sequence (Q8NER1 whole entry, looked up): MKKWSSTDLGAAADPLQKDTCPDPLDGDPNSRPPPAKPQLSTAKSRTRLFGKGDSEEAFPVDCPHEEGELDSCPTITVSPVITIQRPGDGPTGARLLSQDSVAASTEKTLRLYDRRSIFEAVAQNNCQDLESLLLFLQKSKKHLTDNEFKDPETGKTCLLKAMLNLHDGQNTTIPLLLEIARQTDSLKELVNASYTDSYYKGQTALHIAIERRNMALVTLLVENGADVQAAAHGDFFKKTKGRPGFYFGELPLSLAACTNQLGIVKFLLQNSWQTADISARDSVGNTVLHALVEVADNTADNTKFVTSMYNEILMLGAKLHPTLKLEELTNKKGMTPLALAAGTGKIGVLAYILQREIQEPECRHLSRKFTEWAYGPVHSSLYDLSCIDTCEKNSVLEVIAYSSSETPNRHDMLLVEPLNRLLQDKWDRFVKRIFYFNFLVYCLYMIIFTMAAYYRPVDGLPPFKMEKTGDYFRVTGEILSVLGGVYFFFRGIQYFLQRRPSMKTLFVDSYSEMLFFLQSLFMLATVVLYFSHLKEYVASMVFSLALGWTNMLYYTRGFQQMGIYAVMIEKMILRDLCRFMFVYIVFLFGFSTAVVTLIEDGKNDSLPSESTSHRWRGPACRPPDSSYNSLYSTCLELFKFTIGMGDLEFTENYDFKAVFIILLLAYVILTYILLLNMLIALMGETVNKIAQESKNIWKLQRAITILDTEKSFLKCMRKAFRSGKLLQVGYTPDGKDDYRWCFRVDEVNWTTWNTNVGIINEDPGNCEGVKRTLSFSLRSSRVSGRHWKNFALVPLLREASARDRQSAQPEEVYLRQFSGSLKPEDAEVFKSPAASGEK
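TRPV1-expressing cells were cultured overnight at 35.5C and loaded with Fluo-8 calcium dye for 40 to 90 min at room temperature. After a 10 s baseline, compound was added and calcium influx was read kinetically for 3 min (ex 480/em 520 nm).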
Sfp PPTase inh – blocks B. subtilis Sfp PPTase activity. AID 1490. 310,000 compounds, 3.5% hits. Biochemical Sfp PPTase activity, qHTS. Potency, µM, inactives show max response, negative = inhibition, actives largely listed as inhibitors. Q9F4F7; active = well fitted inhibition curve with a large enough effect; inconclusive = small, poorly fitted or top-dose-only effect, or another doubt; inactive = no such curve, though single readings can be large or run the other way;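 note: the enzyme is Sfp with the accession as filed and its product quenches rhodamine fluorescence; potency is the fitted concentration of half-maximal effect; 0% = enzyme reaction without inhibitor and -100% = no enzyme wells; top concentration of the series not given in the record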
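Compounds were incubated with enzyme (final 15 nM) for 15 min at room temperature before substrate addition started the reaction. Fluorescence at 525 nm excitation, 598 nm emission was recorded immediately and after 30 minutes.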
CtBP-E1A inh – inhibitors of CtBP/E1A interaction; AlphaScreen GST-E1A/His-CtBP binding, 1536-well; active compounds read low; control for the full effect not named in the record; activity change, % (no concentration beside the values); 340,000 compounds, 0.49% hits; in the data active means activity change below about -65%; inconclusive means about -30% to -65%; inactive means above about -30%; note: % is set by controls: 0 for no effect and ±100 for the full control effect
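In 5 uL wells, 23 nL compound meets equimolar GST-E1A and His-CtBP (5X stock 125 nM each) for 2 h, 37 °C. Beads (5X, 50 ug/mL) then 1 h, 37 °C, dark.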
An asterisk follows results filed as active; ? = inconclusive; nt = not tested or not shown; [ ] = another dose, or the depositor's remark.

SMILES	ClpP mod	gsp antag	Menin-MLL FL inh	gsp agonist	TRPV1 potentiator	Sfp PPTase inh	CtBP-E1A inh
CCCc1cc(=O)n2[nH]c(-c3cccc(Br)c3)cc2n1	1.0%	-12.0%	-1.4	-2.8%[15.4 µM]	10.9	4.5%	-10.1
COc1ccc(CN(C(=O)c2snc(C(N)=O)c2N)C(C(=O)NC(C)(C)C)c2ccco2)cc1 (stereo not given)	?	-14.5%	-0.8	1.1%	-2.4	12.8%	-0.2
CCCc1cc(=O)[nH]c(SCC(=O)Nc2ccc(Br)cc2Br)n1	nt	2.3%	-0.5	-10.7%[15.4 µM]	10.6	3.1%	-11.9
CC(C)(C)C(=O)NC(Nc1cccc2cccnc12)C(Cl)(Cl)Cl (stereo not given)	1.7%	-1.9%	0.1	0.0%	27.4	-12.4%	?
NC(=S)N/N=C1\CCSc2ccc(Cl)cc21	nt	1.3%	0.0	1.9%[15.4 µM]	8.3	-9.1%	2.8
CS(=O)(=O)c1cnc2c(-c3ccsc3)cnn2c1N	nt	1.1%	0.0	-2.2%[15.4 µM]	12.1	3.8%	0.2
Cc1cn([C@H]2C[C@H](O)[C@@H](CNCC3=Cc4cc(O)ccc4OC3)O2)c(=O)[nH]c1=O	-1.7%	nt	nt	-40.9%	nt	nt	1.3
O=C(CCSc1ccc(Cl)cc1)NCc1ccccn1	-23.1%	4.8%	?	3.8%[15.4 µM]	-8.7	20.9%	8.6
CC(C)=CC(=O)Nc1nnc(-c2ccccc2)s1	-6.8%	7.3%	-3.2	-59.7%[inhibitor]	9.2	-3.9%	10.2
COC(=O)c1cn(C(=O)c2cccc(C)c2)c2ccccc12	-1.6%	-9.6%	-3.1	18.9%[15.4 µM]	7.3	-8.1%	11.6
Cc1cc(NC2CCCC2)n2nc(C)c(-c3ccccc3)c2n1	nt	?	-3.4	22.7%[15.4 µM]	-12.4	-17.1%	15.0
Cc1ccc([N+](=O)[O-])cc1NC(=O)CN(C)CCOc1ccccc1	1.1%	?	-16.0	-1.5%	2.4	-16.7%	5.2
Cc1ccc(C(=O)Nc2ccon2)cc1S(=O)(=O)N1CCOCC1	1.1%	10.9%	-2.4	18.2%	6.3	-3.5%	-19.6
O=C(Cc1ccccc1)N1CCc2ccccc21	-1.7%	-0.2%	6.0	-29.6%	-3.5	11.2%	7.8
Oc1c(Br)cc(/C=N/n2c(-c3ccccc3)n[nH]c2=S)c(O)c1Br	-26.2%	-25.2%	5.5	-8.9%	12.9	-13.0%	nt
Cc1ccc(N(CC(=O)NC(C)(C)C)C(=O)CCC(=O)Nc2ccccn2)c(C)c1	0.1%	nt	nt	-16.0%	nt	nt	4.5
CC(C)/C=C(/C(=O)c1ccc(Cl)cc1Cl)n1cncn1	-2.2%	-1.0%	0.2	7.4%	-7.0	1.7%	nt
COc1cc(NC(=O)CN2C(=O)c3ccccc3S2(=O)=O)cc(OC)c1	0.0%	-4.1%	nt	-10.6%	?	nt	1.5
O=c1cc(C(F)(F)F)c2sc(N3CCCCC3)nc2[nH]1	11.9%	1.2%	?	-5.9%	3.9	?	0.3
CCOc1ccc(C2CC(c3cccc(OC)c3)Nc3nc(N)nn32)cc1 (stereo not given)	-4.4%	6.2%	3.9	-17.4%	15.7	2.8%	-5.3
Cc1ccc(OCCCNCCO)c(Br)c1	-1.7%	22.3%	-0.3	1.7%	-11.2	18.8%	6.5
O=c1c(C(c2ccc(Br)cc2)c2c(O)nc3n(c2=O)CCCS3)c(O)nc2n1CCCS2	nt	-12.4%	8.2	-32.8%[inhibitor]	nt	?	-19.3
O=C(Nc1c(C(=O)c2ccccc2)oc2ccccc12)c1cc(-c2ccccc2O)n[nH]1	-3.7%	-4.5%	0.1	-0.1%	-1.9	-0.6%	-1.0
O=C(CN1C(=O)NC2(CCc3ccccc32)C1=O)c1ccc(F)cc1 (stereo not given)	0.9%	3.5%	nt	-23.8%	-8.3	nt	10.8
CCCc1[nH]n(-c2ccc([N+](=O)[O-])cc2)c(=O)c1C(C)=NCc1ccncc1	nt	?	1.9	-0.9%[15.4 µM]	22.9	-3.4%	-10.5
c1ccc(COc2ncnc3c2ncn3CCCNC2CCN(Cc3ccccc3)CC2)cc1	0.4%	nt	nt	-20.1%	nt	nt	-4.0
FC(F)Oc1ccc(NC(=S)NCCc2ccccn2)cc1	nt	7.8%	5.1	3.5%[15.4 µM]	-5.1	-3.8%	5.0
C/C(=N\NC(=S)NC(C)C)c1cccc([N+](=O)[O-])c1	3.5%	5.9%	0.6	12.4%[15.4 µM]	12.5	13.3%	-4.6
COc1ccc(Cl)cc1S(=O)(=O)NC1CC(C)(C)NC(C)(C)C1	nt	-12.7%	-0.4	3.4%[15.4 µM]	-7.7	15.0%	nt
CCCCOc1ccc(C(=O)N2CCN(c3ccc(N4CCOCC4)nn3)CC2)cc1	nt	-7.4%	nt	5.4%[15.4 µM]	-20.9	nt	0.0
Cc1cccn2c(=O)c(/C=N/O)c(N3CCOCC3)nc12	nt	10.0%	-3.4	12.4%[15.4 µM]	6.4	0.5%	0.0
CC1CC(C)CN(C(=O)CSc2nc(N)cc(=O)[nH]2)C1 (stereo not given)	-1.0%	5.8%	-3.0	10.1%	8.2	8.7%	nt
O=C(NCCC1CCCCN1S(=O)(=O)c1ccc(F)cc1)C(=O)NCc1ccncc1 (stereo not given)	0.6%	1.5%	nt	-4.9%[15.4 µM]	-9.9	nt	-2.7
C[C@]12c3[nH]c4ccccc4c3CCN1C(=O)C(CC(=O)NCc1cccc(C(F)(F)F)c1)C[C@@H]2C(=O)N1CCCCC1 (stereo not given in full)	-0.1%	-13.1%	nt	nt	nt	nt	-11.0
CC1(C)OC(C(N)=O)C(C(N)=O)O1 (stereo not given)	0.1%	10.4%	-0.5	-19.5%	24.9	17.0%	1.0
COc1cc(C2Nc3cc(C)c(C)cc3NC3=C2C(=O)CC(C)(C)C3)ccc1OC(C)=O (stereo not given)	2.5%	-32.3%	-1.9	-86.7%[inhibitor]	1.6	-3.5%	1.8
CCN(CC)c1ccc2cc(C#N)c(=O)oc2c1	nt	-9.8%	?	-2.0%[15.4 µM]	-3.1	-1.2%	3.2
COc1cccc(C(=O)NCc2ccccc2OC)c1	-1.2%	-8.6%	-1.0	-21.0%	10.1	5.4%	9.8
Clc1ccc(OCCOCCN2CCc3ccccc3C2)c(Cl)c1	1.8%	14.1%	-0.3	-0.8%[15.4 µM]	7.9	4.0%	8.3
CCn1c(=O)n(CC(=O)Nc2cc(OC)ccc2OC)c(=O)c2ccccc21	-4.0%	0.6%	2.8	2.6%	8.1	15.6%	0.7
Cc1cccc(C(=O)N(CC(=O)Nc2sc(C)c(C)c2C(N)=O)C2CCCC2)c1	nt	-26.8%	6.9	0.4%[15.4 µM]	-0.1	5.4%	23.2
CNC(=O)C[C@@H]1C(=O)N(CCc2ccccc2)CC1(C)C	-1.3%	nt	nt	?	nt	nt	-4.9
Clc1nc2c(-c3ccccc3)nnn2c2ccccc12	10.9%	7.6%	3.3	-4.1%	18.0	12.8%	nt
C/C(=C\C(=O)c1ncc(C(F)(F)F)cc1Cl)N(C)C	nt	11.9%	6.4	?	-6.1	6.4%	2.0
Cc1cc(C)nc(N2CCC(C(=O)Nc3cccc(C(F)(F)F)c3)CC2)n1	?	-1.0%	0.3	2.2%	12.3	10.9%	4.2
CCOc1ncccc1C(=O)OCC(=O)N(CC(C)C)C1CCS(=O)(=O)C1 (stereo not given)	nt	nt	-4.3	-7.5%[15.4 µM]	-24.1	7.6%	-10.0
CCN(CC)CCCN(Cc1cc2cc3c(cc2[nH]c1=O)OCO3)C(=S)Nc1ccccc1OC	nt	9.8%	1.6	21.3%[15.4 µM]	5.8	1.4%	-12.4
COc1cccc(C(C(=O)NC2CCCC2)N(C(=O)c2ccco2)C2CC2)c1OC (stereo not given)	0.8%	-2.5%	-0.5	-16.6%	-6.6	4.1%	6.8
Cc1nn(Cc2ccc(F)cc2)c2sc(C(=O)Nc3nccs3)cc12	-27.6%	-2.7%	5.4	2.8%	-6.5	4.0%	5.0
O=C(CCc1nnc2ccc(N3CCCCC3)nn12)NCc1ccco1	-1.4%	-9.3%	nt	?	4.9	14.0%	0.4
CCOC(=O)c1c(NC=O)sc2c1CCC2	-1.9%	-0.6%	4.5	-10.5%[15.4 µM]	-6.3	9.6%	3.7
CCOC(=O)CN(Cc1ccccc1)S(=O)(=O)c1ccc(NC(C)=O)cc1	3.7%	-11.0%	2.9	2.2%	-0.2	7.5%	3.6
CC(=O)CCC(=O)OCC(=O)Nc1ccc(SC(F)F)cc1	nt	nt	4.8	-4.2%[15.4 µM]	-5.2	14.8%	9.6
COc1ccc(CCN(C)C(=S)Nc2ccc(SC(F)F)cc2)cc1OC	nt	-2.1%	nt	7.7%[15.4 µM]	2.9	7.7%	-7.2
CCCSc1ncnc2c1oc1ccccc12	-0.7%	3.8%	1.1	16.7%	-7.0	1.8%	20.6
O=C(N/N=C/c1cccc(Oc2ccccc2)c1)c1ccncc1	nt	-22.1%	0.2	3.5%[15.4 µM]	4.4	5.5%	-3.6
CC(=O)c1cccc(NC(=O)C2CCCN(S(=O)(=O)c3cccc4cccnc34)C2)c1 (stereo not given)	-2.5%	-28.7%	-0.6	-12.3%	?	-2.6%	-2.5
COc1cccc(C(=O)N/N=C(\C)c2cccc(NC(=O)c3ccc(F)cc3)c2)c1OC	0.9%	-10.6%	nt	1.0%	-8.1	15.1%	?
O=C(NCCCN1CCCCCC1)c1ccc(N2CCCC2=O)cc1	0.5%	5.8%	0.1	-26.6%	4.8	9.2%	-1.7
CCc1cccc2c(C=C(C#N)C#N)cn(CC(=O)N3CCCC3)c12	-1.2%	4.4%	?	-30.4%[inhibitor]	nt	-3.0%	-5.0
Fc1ccccc1Cc1noc(CN2CCN(Cc3ccc4c(c3)OCO4)CC2)n1	nt	7.7%	1.9	3.4%	-4.5	9.0%	-25.1
CCOC(=O)c1ccc(NC(=S)N(CCCN2CCCCCC2)Cc2ccco2)cc1	-1.1%	17.4%	8.2	6.7%[15.4 µM]	-10.5	-22.9%	1.9

Bioassay records as filed in PubChem.
